# Compound activity from PubChem BioAssay.
# KCNQ2 inh: KCNQ2 channel blockers in CHO-K1 cells – cell-based, FluxOR thallium flux, B-score, primary screen (AID 2156); O88943; 20 min; hits give low values; only compounds with negative scores are shown here; some inactives read as strong as hits; B-score at 10 µM; actives 1.1% (n = 310,000);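 active means fluorescence ratio B-score at most minus 3 library SDs, with starting brightness B-score within 2 library SDs, cut at about -5.5 in these data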
# Target sequence (O88943 whole entry, looked up): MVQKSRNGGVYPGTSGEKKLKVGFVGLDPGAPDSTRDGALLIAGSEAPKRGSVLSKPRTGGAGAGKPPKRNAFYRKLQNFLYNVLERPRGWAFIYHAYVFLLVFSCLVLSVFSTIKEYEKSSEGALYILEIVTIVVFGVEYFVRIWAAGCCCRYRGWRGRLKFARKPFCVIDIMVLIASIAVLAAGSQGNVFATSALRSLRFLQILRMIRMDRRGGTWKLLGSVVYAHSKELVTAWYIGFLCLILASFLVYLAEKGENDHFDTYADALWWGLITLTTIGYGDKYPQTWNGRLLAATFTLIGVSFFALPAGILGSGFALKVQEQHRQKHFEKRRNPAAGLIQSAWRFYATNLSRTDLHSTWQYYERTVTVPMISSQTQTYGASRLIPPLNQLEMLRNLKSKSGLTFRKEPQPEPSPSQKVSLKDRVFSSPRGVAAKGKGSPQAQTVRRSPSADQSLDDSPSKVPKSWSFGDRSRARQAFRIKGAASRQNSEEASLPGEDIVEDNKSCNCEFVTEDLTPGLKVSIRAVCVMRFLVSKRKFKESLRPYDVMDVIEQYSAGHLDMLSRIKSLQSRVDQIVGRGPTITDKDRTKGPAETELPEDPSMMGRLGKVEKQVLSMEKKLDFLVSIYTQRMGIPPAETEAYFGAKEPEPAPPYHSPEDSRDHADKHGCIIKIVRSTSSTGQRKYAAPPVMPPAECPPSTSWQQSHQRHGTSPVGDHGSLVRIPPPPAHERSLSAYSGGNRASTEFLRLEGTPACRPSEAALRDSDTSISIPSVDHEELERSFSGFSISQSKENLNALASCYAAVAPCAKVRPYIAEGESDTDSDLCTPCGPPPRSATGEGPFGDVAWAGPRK
# KCNQ2 inh baseline: further read-out of KCNQ2 inh, marked with its call; B-score; measured here: initial fluorescence intensity artifact check;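 brightness before thallium and not channel activity; 0 = typical well and far values either way flag optical interference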
# Numbers without * were called inactive; i = inactive. These rows are one share of the data; count on the stated rates, not on these rows.
# The line under a structure holds: KCNQ2 inh, KCNQ2 inh baseline
- COc1ccc(/C=N/n2c(SC)nnc(C(C)(C)C)c2=O)cc1OC
    i, -1.2
- CCOC(=O)c1cc2c(=O)n3ccccc3nc2n(C(C)C)c1=NC(=O)c1c(-c2c(F)cccc2Cl)noc1C
    i, -0.38
- CC1=CC(C)(C)Nc2ccccc21
    i, -0.62
- COc1ccc(C(=O)NC(=S)NNC(=O)COc2ccccc2)cc1
    i, 0.12
- Cc1ccccc1NC1=C(Cl)C(=O)OC1OC(=O)c1ccccc1C (stereo not given)
    i, -1.2
- O=C(CCNS(=O)(=O)c1ccccc1)N1CCCCCC1
    i, 2
- O=C(CSc1cccc2cccc(Cl)c12)OCC(=O)N1CCN(C(=O)c2ccco2)CC1
    i, -0.46
- Cc1nc(N2CCN(S(=O)(=O)c3ccccc3)CC2)c2cc(-c3ccccc3)sc2n1
    i, 0.32
- CCCc1cc(=O)oc2c3c(cc(OCC(=O)NCCCn4ccnc4)c12)OC(C)(C)CC3
    i, 8.3
- CC(C)(C)C(=O)Nc1c(Cl)cccc1OC(F)(F)F
    i, 0.91
- Cc1ccc(C(=O)O/N=C(/c2nonc2N)N(C)C)cc1
    i, 2.8
- CCOC(=O)c1cc(CC)sc1NC(=O)c1cc(OC)c(OC)c(OC)c1
    i, 0.16
- O=C(O)c1ccc(CN(c2ccccc2)S(=O)(=O)c2ccccc2)cc1
    i, 1.3
- O=S(=O)(NCCSc1nnc(-c2ccco2)n1-c1ccccc1)c1ccccc1
    i, 0.76
- CCN1CCN(c2ccc(NC(=O)c3ccco3)cc2)CC1
    i, -1.3

# Brought forward from above: 3 entries, then new ones.
# The line under a structure holds: KCNQ2 inh, KCNQ2 inh baseline
- O=C(O)c1ccc(CN(c2ccccc2)S(=O)(=O)c2ccccc2)cc1
    i, 1.3
- O=S(=O)(NCCSc1nnc(-c2ccco2)n1-c1ccccc1)c1ccccc1
    i, 0.76
- CCN1CCN(c2ccc(NC(=O)c3ccco3)cc2)CC1
    i, -1.3
- CC(C)Oc1cccc(C(=O)C2CCCN(S(C)(=O)=O)C2)c1 (stereo not given)
    i, 0.17
- CCOc1ccc(N2CC(C(=O)N3CCCCCC3)CC2=O)cc1 (stereo not given)
    i, -0.45
- O=C(Nc1ccc2nc(-c3ccco3)c(-c3ccco3)nc2c1)N1CCCCCC1
    i, 2.5
- CCOc1ccccc1NC(=O)COc1coc(CN2CCc3ccccc3C2)cc1=O
    i, -0.73
- O=C(CS(=O)(=O)c1ccccc1)c1cc2cc(F)ccc2oc1=O
    i, -0.09
- Cc1c(C)c2c(OCC(=O)NCc3ccco3)cc3c(c2oc1=O)CCC(C)(C)O3
    i, 0.3
- COc1cccc(NC(=O)CCC2CCN(C(=O)c3ccc(C(C)=O)s3)CC2)c1
    i, -1.6
- Cc1cc(OC(=O)c2c(Cl)cc(Cl)cc2Cl)nc(C)n1
    i, 2.3
- Cc1ccccc1OCCNc1cc(N2CCCCC2)ccc1[N+](=O)[O-]
    i, 1.3
- COc1ccc(C)cc1S(=O)(=O)NCCc1ccccc1
    i, 1.3
- CCOC(=O)c1ccc(NC(=O)Cc2coc3cc4c(cc23)CCC4)cc1
    i, -1.3
- COc1ccc(NN=Nc2nc3c([nH]2)c(=O)n(C)c(=O)n3C)cc1
    i, 1.5
- CCCOc1ccc(NCC(=O)Nc2ccc(C)cc2C)cc1
    i, 0.87
- Cc1ccc(N/N=C/c2ccc3c(c2)OCCO3)cc1Cl
    i, -0.03
- O=C(COC(=O)c1ncc(Cl)c(Cl)c1Cl)NC(=O)NCc1ccccc1
    i, 1.9

# Continued.
# The line under a structure holds: KCNQ2 inh, KCNQ2 inh baseline
- CC(=O)c1c(C(C)=O)c(C)n(-c2ccc(C)c(NC(=O)c3ccccc3Cl)c2)c1C
    i, -2
- COc1ccc(-n2c(O)c(/C=C3\C=Nc4ccccc43)c(=O)[nH]c2=O)cc1
    i, 1.2
- COC(=O)c1ccccc1S(=O)(=O)N1CCC(C(=O)OCc2ccc([N+](=O)[O-])cc2)CC1
    i, 1.2
- CC(C)CC(C(=O)NC1CCCCC1)N(Cc1ccccc1)C(=O)c1snc(C(N)=O)c1N (stereo not given)
    i, -1.2
- Cc1c(C(=O)OCC2CCCO2)[nH]c2c1C(=O)CC(c1ccco1)C2 (stereo not given)
    i, -1.8
- C=CCOc1ccccc1C(=O)/C=C1/C(=O)Nc2ccccc21
    i, 0.13
- O=C(/C=C/c1cccc([N+](=O)[O-])c1)NCCSCc1ccc(Cl)cc1Cl
    i, -0.04
- CCn1c(CNC(=O)Cc2ccc(OC)cc2)nnc1SCC(=O)NC1CCCCC1
    i, 1.1
- c1coc(CN(Cc2cccs2)Cc2nnnn2C2CCCCC2)c1
    i, -1.4
- Cc1cc(-c2nnc(CCC(=O)N(C)C(C)c3cccs3)o2)no1 (stereo not given)
    i, 0.9
- CC(C(=O)N1CCCc2ccccc21)N1CCN(S(=O)(=O)c2ccccc2F)CC1 (stereo not given)
    i, 0.51
- COc1cnc(SC(C)C)[nH]c1=O
    i, -1
- Cc1cccc(C(=O)NC(C(=O)Nc2ccccc2N2CCOCC2)C(C)C)c1 (stereo not given)
    i, 3
- O=C(CCS(=O)(=O)c1ccc(Br)cc1)Nc1ccc(Br)cc1F
    i, -1.1
- CCN(CC)S(=O)(=O)c1ccc2c(c1)N(CC(=O)NCCCN1CC(C)CC(C)C1)C(=O)CO2 (stereo not given)
    i, -0.23

# (listing goes on)
# The line under a structure holds: KCNQ2 inh, KCNQ2 inh baseline
- CCN(CC)c1ccc2c(O)cc(=O)oc2c1
    i, 0.86
- NC(=O)C1CCN(C(=O)OCc2ccccc2)CC1
    i, -2.4
- CC1CN(C(=O)c2cc3ccccc3cc2O)CC(C)O1 (stereo not given)
    i, -0.07
- COc1ccc(C(=O)NCc2nnc(SCC(=O)NC3CCCC3)o2)cc1
    i, 0.7
- O=C(NC1CCSc2ccccc21)c1cccc(Cl)c1 (stereo not given)
    i, -2.8
- Cc1ccc(NC(=O)c2c(NC(=O)CCC(=O)O)sc3c2CCCCC3)cc1
    i, -1.1
- O=C(CNC(=O)c1sc2ccccc2c1Cl)NCc1ccc(F)cc1
    i, 1.1
- O=C(N/N=C/c1ccc(Br)s1)c1ccco1
    i, 0.41
- COc1ccc(C2CC(c3ccccc3)=NN2C(=O)COC(=O)c2cnc(Cl)c(Cl)c2)cc1 (stereo not given)
    i, -1.5
- CN1C(=O)C(O)(CC(=O)c2ccncc2)c2ccccc21 (stereo not given)
    i, 0.59
- Cc1cc(NC(=O)CSc2nc(=O)n(CCCN(C)C)c3c2CCCC3)no1
    i, 0.2
- COc1ccc(/C=C/c2c(-c3ccc(OC)cc3)oc3cccnc23)cc1
    i, 1.4
- O=C(CCCCCNC(=O)c1ccccc1)N/N=C/c1ccccc1
    i, -0.47
- NC1=NC(=O)/C(=C/c2ccc(-c3ccc(S(N)(=O)=O)cc3)o2)S1
    i, 2.3
- CN(C)CCCNC(=O)c1ccccc1Oc1ccccc1
    i, 1.2

# Record cards, as listed above:
# `O=C(N/N=C/c1ccc(Br)s1)c1ccco1` is listed with KCNQ2 inh: i; KCNQ2 inh baseline: 0.41
# `O=C(CCCCCNC(=O)c1ccccc1)N/N=C/c1ccccc1` is listed with KCNQ2 inh: i; KCNQ2 inh baseline: -0.47

# Other entries
Molecule	KCNQ2 inh	KCNQ2 inh baseline
Cc1ccc(NC(=O)C2COc3ccccc3O2)cc1 (stereo not given)	i	0.44
COCC(C)NC(C(=O)Nc1ccc(Cl)c([N+](=O)[O-])c1)c1ccccc1 (stereo not given)	i	0.32
Cc1ccc(C(=O)N2CCCC(N3CCN(c4cccc(C(F)(F)F)c4)CC3)C2)s1 (stereo not given)	i	-2.1
Cc1ccc(CN2CCC(c3cc(-c4cccs4)n[nH]3)CC2)cc1	i	-0.38
CCOc1ccc2nc(N(CCCN(C)C)C(=O)c3ccc(C(=O)c4ccccc4)cc3)sc2c1	i	-1.4
Cn1ncc(Cl)c1C(=O)N/N=C/c1ccccn1	i	1.5
COc1cccc(C2(c3cccc(OC)c3)CC2C(=O)Nc2cccc3ccccc23)c1 (stereo not given)	i	0.07
CCn1nnnc1NC(=O)c1ccc2ccccc2c1	i	2.4
c1cnc2ccc(C(c3nnnn3C3CCCC3)N3CCN4CCCC4C3)cc2c1 (stereo not given)	i	1.2
O=C(c1ccc(COc2ccccc2Br)cc1)N1CCCCCC1	i	-0.45
Cc1ccc(Oc2cnc3ccccc3n2)cc1	i	1.3
Cc1scc(C(=O)N/N=C/c2ccc(Cl)s2)c1C	i	0.05
c1ccc(Cc2nnc3sc(-c4cccnc4)nn23)cc1	i	-1.4
Cc1cc(Nc2ccccc2)n(C(=O)c2ccccc2)n1	i	-0.56
Cc1ccc(NC(=O)CNc2ccc(OC(C)C)cc2)c(C)c1	i	1.2

# Remaining list, next part
Molecule	KCNQ2 inh	KCNQ2 inh baseline
O=S(=O)(Cc1cc(-c2ccccc2Cl)no1)c1ccccc1	i	-0.12
Nc1nc2nc(-c3cccs3)cc(C(F)(F)F)n2n1	i	-0.93
COc1ccccc1NS(=O)(=O)c1ccc2oc(SCC(C)=O)nc2c1	i	1.3
COc1ccccc1NC(=O)c1csc2c1CCCC2	i	0.52
N#Cc1cncc(-c2ccc3c(c2)OCCOCCOCCOCCOCCO3)n1	i	-1.5
CCN(CC)c1ccc(C(=O)N/N=C(\C)c2cccc(OC)c2)cc1	i	-0.18
COc1ccc(OC)c(Nc2nc(NCCC(C)C)nc(N)c2[N+](=O)[O-])c1	i	-0.65
CCOc1ncccc1C(=O)OCC(=O)N1CCN(S(=O)(=O)c2ccc(Cl)cc2)CC1	i	-0.25
COc1ccc2c(c1)N(C)C(=O)CC(c1ccccc1)=N2	i	0.64
CCN(CC)c1ccc(/C=N/NC(=O)Cc2cccs2)cc1	i	0.35
Cc1cccc(N(C(=O)CNC(=O)c2cccs2)C(C(=O)NC2CCCC2)c2ccncc2)c1 (stereo not given)	i	-0.03
CC1=NOC(=O)/C1=C/c1ccc2c(c1)OCO2	i	-1.4
Cc1cc(NC(=O)COc2coc(CN3CCN(c4ccccc4F)CC3)cc2=O)no1	i	-0.06
N#Cc1ccc(CSc2nnc(COc3ccccc3)n2-c2ccccc2)cc1	-5.6*	-0.07*
O=C(CCC1CCCCC1)NCCS(=O)(=O)N1CCN(c2ccccc2F)CC1	i	-0.43

# Later entries:
Molecule	KCNQ2 inh	KCNQ2 inh baseline
Nc1nonc1C(=O)N/N=C/c1ccc(-c2cccc(C(=O)O)c2)o1	i	0.08
Cc1ccc(C)c(S(=O)(=O)NCCOc2nc(NC(C)C)nc(NC(C)C)n2)c1	i	-0.08
COc1ccc(N2CCN(S(=O)(=O)c3ccc(OC)c(C(=O)N4CCOCC4)c3)CC2)cc1	i	0.42
Cc1ccc(S(=O)(=O)NCc2nc3ccccc3c(=O)n2N)cc1	i	0.07
COc1ccc(CNC(=O)CCc2c[nH]c3ccccc23)cc1	i	0.1
Cc1ccccc1OCC(O)CN1CCCCC1 (stereo not given)	i	0.18
O=C(NC1CCCCC1)N1CCN(C(c2ccccc2)c2ccccc2)CC1	i	1.9
Cc1ccc(C(=O)NCC(=O)N(C)CC(=O)Nc2c(Cl)cccc2Cl)s1	i	0.4
O=c1[nH]oc2cc(Cl)ccc12	i	0.14
COc1cccc(-c2csc(NC(=O)Nc3ccccc3)n2)c1	i	-0.64
CS(=O)(=O)N1CCN(C(=O)CCC2CCCC2)CC1	i	1.3
CC(C)CC(=O)C1=C(O)C(=O)N(Cc2ccccc2)C1c1ccccc1 (stereo not given)	i	1.1
Cc1cc(C)cc(NC(=S)N(Cc2ccc(Br)cc2)Cc2ccc(C(=O)O)cc2)c1	i	-0.62
O=C(NCc1cc(F)cc(C(F)(F)F)c1)C1CCC(=O)N(C2CCCC2)C1 (stereo not given)	i	-1
COc1ccc(CCNC(=O)C(C)Sc2ccccc2)cc1OC (stereo not given)	i	-0.36

# (list continues)
Molecule	KCNQ2 inh	KCNQ2 inh baseline
CCCCCN(C(=O)CCC(=O)OCc1ccc(C(C)C)cc1)c1c(N)n(CCCC)c(=O)[nH]c1=O	i	-0.01
C/C(CC(=O)Nc1ccc2c(c1)OCCO2)=N\NC(=O)c1ccccc1F	i	1.2
COc1ccc(C(=O)Oc2cc3c4c(c2)C(C)=CC(C)(C)N4C(=O)C3=O)cc1OC	i	-0.02
Cc1c(Cl)cccc1NC(=O)CNC(=O)c1ccco1	i	-0.07
COCC(=O)N1CCC(Oc2ccc(C(=O)NCCc3ncccc3C)cc2)CC1	i	-0.22
Cc1ccc(NC(=O)N(CCC#N)Cc2ccccc2)cc1	i	0.31
Fc1ccc(Cn2cc(C(=S)N3CCOCC3)c3ccccc32)cc1	i	0.3
O=c1[nH]c(NCCCO)nc2c1C1(CCCC1)Cc1ccccc1-2	i	-1
Cc1cccc(N2C(=O)N3[C@H](c4ccc(F)cc4)[C@@H]4C(=O)N(C5CCCCC5)C(=O)[C@@H]4[C@]3(Cc3ccc(Cl)cc3)C2=O)c1	i	1.6
O=C(NC1CCCC1)C(c1ccncc1)N(C(=O)c1csnn1)c1ccccc1F (stereo not given)	i	1.1
O=C(C1CCCCC1)N1CCN(S(=O)(=O)c2ccc(Cl)cc2)CC1	i	0.99
Fc1ccc(NC(=S)NCCc2ccccn2)cc1	i	1.5
O=C(NCCc1ccccc1Cl)C1CCC(=O)N(CCCc2ccccc2)C1 (stereo not given)	i	0.46
C/C(=N\OC(=O)C1CC1)C1CC1c1ccc(F)cc1 (stereo not given)	i	1.8
Cn1c(=O)c([N+](=O)[O-])c(-n2cnc3ccccc32)c2ccccc21	i	-1.4

# More compounds:
Molecule	KCNQ2 inh	KCNQ2 inh baseline
O=C(CCOc1ccccc1F)N1CCN(c2ccccc2O)CC1	i	-0.99
O=C(CNC(=O)N1CC(=O)Nc2ccccc21)Nc1ccccc1F	i	-0.62
O=C(N/N=C/c1ccccc1Cl)c1ccncc1	i	2.7
Cc1nn(C(C)C(=O)NCCCN2CCCCCC2)c(=O)c2cc3sccc3n12 (stereo not given)	i	0.01
